Cruzain Triton = qHTS Assay for Promiscuous and Specific Inhibitors of Cruzain (with detergent). Cruzipain (Trypanosoma cruzi), P25779. purified cruzain, Z-FR-AMC fluorescence, 0.01% Triton. Potency, µM, for inactives: max response, negative = inhibition, actives largely listed as inhibitors. actives 0.43% (n = 200,000);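 note: plate controls were neutral wells for no effect and buffer without enzyme for full effect; nearly all actives have a fitted effect of over 40% in size; top concentration of the series not given in the record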
Target sequence (P25779 123-467 limits assumed): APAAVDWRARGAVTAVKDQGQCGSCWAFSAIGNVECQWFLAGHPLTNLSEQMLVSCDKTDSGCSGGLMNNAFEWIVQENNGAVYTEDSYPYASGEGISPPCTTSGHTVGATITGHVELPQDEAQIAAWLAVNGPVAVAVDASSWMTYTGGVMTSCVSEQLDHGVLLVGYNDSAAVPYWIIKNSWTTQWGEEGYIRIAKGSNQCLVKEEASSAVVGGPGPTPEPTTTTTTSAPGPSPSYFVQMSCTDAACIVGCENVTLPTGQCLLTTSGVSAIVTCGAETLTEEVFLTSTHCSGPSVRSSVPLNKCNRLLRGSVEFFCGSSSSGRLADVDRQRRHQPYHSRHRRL
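Steps: dispense cruzain (1.5 nM final) in acetate buffer pH 5.5 with DTT and 0.01% Triton X-100; pin-transfer compounds; incubate 15 min RT; add Z-FR-AMC (2 uM final); read fluorescence every 30 s, using the 60 s intensity change.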
NS1 inh = qHTS Assay for Inhibitors of Influenza NS1 Protein Function; AID 2326, 2010; Potency, µM (top dose mostly 46.1 µM), for the others: at the highest dose activity, positive = more growth; actives 0.4% (n = 270,000); S. cerevisiae slowed by influenza A NS1, growth recovery by OD600; active means well fitted rising curve with a large enough effect; inconclusive means small, poorly fitted or top-dose-only effect; inactive means no such curve, though single readings can be large or run the other way; note: nearly all actives have a fitted effect of over 50% in size
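S. cerevisiae expressing influenza A NS1, grown in glucose, washed, then diluted 1:100 into pH 6.0 -URA galactose medium with 23 nl compound. Growth recovery read as OD600; NS1-free strain serves as control.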
LASV entry inh = qHTS for Inhibitors of binding or entry into cells for Lassa Virus; Lassa virus pseudotype entry inhibition, cell reporter; control for the full effect not named in the record; Potency, µM (doses to about 37.9 µM), without a hit: at the top dose activity change, negative = inhibition, hits mostly inhibitors; actives 1.2% (n = 300,000); active means well fitted inhibition curve with a large enough effect; inconclusive means small, poorly fitted or top-dose-only effect, or effect the other way; inactive means flat fitted curve, though single readings scatter; tested in HEK293 cells; note: % is set by controls: 0 for no effect and ±100 for the full control effect; nearly all actives have a fitted effect of over 50% in size; luciferase read-out
Marburg entry inh = qHTS for inhibitors of binding or entry into cells for Marburg Virus; Marburg virus pseudotyped entry inhibition, cell reporter; control for the full effect not named in the record; about a third of the inactives were read at about 46 µM; Potency, µM (top dose mostly 37.8 µM), for the others: at the highest dose activity change, negative = inhibition, actives largely listed as inhibitors; actives 1.8% (n = 300,000); active = well fitted inhibition curve with a large enough effect; inconclusive = small, poorly fitted or top-dose-only effect, or effect the other way; inactive = flat fitted curve, though single readings scatter; tested in HEK293 cells; about a fifth of its hits are not listed in these tables; note: % is set by controls: 0 for no effect and ±100 for the full control effect; luciferase read-out
SARS PLpro yeast = qHTS of Yeast-based Assay for SARS-CoV PLP; S. cerevisiae expressing SARS-CoV PLpro, growth rescue; control for the full effect not named in the record; Potency, µM (doses to about 32.9 µM), for the others: top-dose activity, positive = growth rescue; actives 0.19% (n = 330,000); active means well fitted rising curve with a large enough effect; inconclusive means small, poorly fitted or top-dose-only effect; inactive means no such curve, though single readings can be large or run the other way; note: 0% is about no effect; nearly all actives have a fitted effect of over 55% in size; growth read by luminescence after 48 h
RE007 growth inh = qHTS Assay for Inhibitors of the HIV-1 protein Vpr. S. pombe RE007 Vpr strain, BacTiter-Glo ATP luminescence, 24 h; control for the full effect not named in the record. Potency, µM (doses to about 92.2 µM), for inactives: at the top dose activity change, negative = less growth. actives 0.21% (n = 360,000); active = well fitted falling curve with a large enough effect; inconclusive = small, poorly fitted or top-dose-only effect; inactive = no such curve, though single readings can be large or run the other way;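 note: % is set by controls: 0 for no effect and ±100 for the full control effect; nearly all actives have a fitted effect of over 50% in size; the assay follows cell death caused by Vpr and the record does not say whether a fall means rescue or toxicity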
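Fission yeast strain RE007, carrying one chromosomally integrated HIV-1 vpr copy, was seeded at OD 0.01 in PMG+AL medium with 23 nL pinned compound. After 24 h at 30 °C and 99% humidity, viability was read by BacTiter-Glo luminescence.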
Cruzain inh noDet = qHTS Assay for Promiscuous and Specific Inhibitors of Cruzain (without detergent); purified cruzain, Z-FR-AMC fluorescence, no detergent; Potency, µM, without a hit: max response, negative = inhibition, actives largely listed as inhibitors; AID 1476, 2009; Cruzipain (Trypanosoma cruzi), P25779; actives 2.3% (n = 200,000);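 note: plate controls were enzyme without inhibitor for no effect and buffer without enzyme for full effect; nearly all actives have a fitted effect of over 40% in size; top concentration of the series not given in the record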
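Purified cruzain at 1.5 nM, pre-incubated 15 min with compound at room temperature in 100 mM sodium acetate pH 5.5, 5 mM DTT, 0.00005% Triton X-100. Reaction started with 2 uM Z-FR-AMC; AMC fluorescence increase over 60 s gives rate.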
StopGo reporter = High Throughput Screening for Foot and Mouth Disease Virus Antivirals | Potency, µM (top dose mostly 57.9 µM), without a hit: at the top dose signal change, negative = less light | human cells with a luciferase reporter of 2A StopGo recoding; control for the full effect not named in the record | actives 1.2% (n = 410,000) | AID 1159524, 2015; active = well fitted falling curve with a large enough effect; inconclusive = small, poorly fitted or top-dose-only effect; inactive = no such curve, though single readings can be large or run the other way; tested in HEK293T cells; note: % is set by controls: 0 for no effect and ±100 for the full control effect; nearly all actives have a fitted effect of over 45% in size; luciferase light after 4 h
An asterisk follows results filed as active; ? = inconclusive; nt = not tested or not shown; & = joins results of further samples; [ ] = remark or other dose. Unless noted, calls come from the whole dose curve; as a rule, active = well fitted curve in the direction sought with a large enough effect; inconclusive = small, poorly fitted or top-dose-only effect, or another doubt; inactive = no such curve, though single readings can be large; an effect the other way counts as inactive or inconclusive. Potency is the fitted concentration of half-maximal effect.

SMILES	Cruzain Triton	NS1 inh	LASV entry inh	Marburg entry inh	SARS PLpro yeast	RE007 growth inh	Cruzain inh noDet	StopGo reporter
Cc1ccc(NCc2nnc(SCC(N)=O)n2CC2CCCO2)c(C)c1 (stereo unspecified)	1.7%	-17%	1%	-1%	18%	12%	-6%	37%[activator]
O=C(CCN1CCN(C/C=C/c2ccccc2)CC1)Nc1ccccc1	2.5%	0%	3%	1%	0%	1%	4%	-16%
COC(=O)c1ccc(NC(=O)CN2CCN(S(=O)(=O)c3ccc(Br)cc3)CC2)cc1	-4.2%	-30%	4%[46.1 µM]	nt	-1%	1%	24%	-4%&-14%
CCOC(=O)c1c(NC(=O)CS(=O)(=O)c2ccc(C)cc2)sc2c1CCCCC2	-7.6%	nt	-5%[46.1 µM]	nt	nt	nt	4µM*	-8%
CCOc1ccc(NC(=O)N2CC(C)OC(C)C2)cc1 (stereo unspecified)	nt	-2%	21%[46.1 µM]	-1%[46.1 µM]	-1%	9%	nt	-9%
NC(=O)C1CCN(C(=O)c2ccc(C(F)(F)F)cc2)CC1	5.6%	2%	-2%	10%	-1%	1%	4%	2%
COc1ccc(C(=O)COC(=O)CCN2C(=O)C3C4C=CC(C5CC45)C3C2=O)cc1 (stereo unspecified)	nt	-39%	?	8%	-2%	-10%	nt	-7%
COc1ccc(NS(=O)(=O)c2cc(C(=O)NNC(=O)c3ccncc3)ccc2OC)c(OC)c1	nt	nt	-7%[46.1 µM]	0%[46.1 µM]	3%	1%	nt	8%
CCC(=O)Nc1cccc(NC(=O)CSc2nnc(C3CC3)n2C)c1	14%	-6%	3%	2%[46.1 µM]	0%	-27%	-7%	-29%
Clc1ccc(Cn2ncc3c(NCc4cccnc4)ncnc32)cc1	-2.6%	-19%	?	-29%	-2%	7%	12%	?
CCOc1ccccc1N1CCN(C(=S)Nc2ccc(S(N)(=O)=O)cc2)CC1	-6.2%	4%	-19%	-8%	-15%	9%	1%	-17%
CCOC(=O)C1=C(C)NC(=O)NC1c1cn(-c2ccccc2)nc1-c1ccc(OCC)cc1 (stereo unspecified)	-14%	nt	-23%[46.1 µM]	?	nt	nt	6%	0%
CCOC(=O)c1c(C)[nH]c(CCC(=O)NCc2ccc(OC)cc2OC)c1C	2.8%	nt	-8%[46.1 µM]	nt	nt	nt	-5%	-9%
COc1ccccc1/C=C1\SC(=O)N(CCC(=O)N(C)C2CCS(=O)(=O)C2)C1=O (stereo unspecified)	nt	5%	nt	nt	6%	23%	nt	-11%
CN1CCN(C(=O)N2CCNC2=O)CC1	3.3%	-14%	6%	29%	-1%	3%	7%	1%
Cn1nnnc1SCc1ccc(CSc2nnnn2C)cc1	nt	4%	1%[46.1 µM]	11%[46.1 µM]	0%	2%	nt	-5%
CO/N=C/NC(=O)c1c(OC)ccnc1Oc1ccccc1	4.8%	?	1%	4%	4%	8%	-1%	17%
Cc1ccc2nc(-c3ccc(NC(=O)CSc4nc(N)cc(=O)[nH]4)cc3)sc2c1	nt	?	nt	nt	0%	-3%	nt	15%
Cc1ccc(OCC(=O)N(C)C2CCCCC2)c([N+](=O)[O-])n1	nt	nt	7%	-16%	1%	5%	nt	5%
COc1cccc(-c2c(C#N)c(N)nc3c2c(C)nn3-c2ccccc2)c1O	nt	-1%	nt	nt	-6%	9%	nt	?
O=C(OCC(=O)N1CCCC1)c1ccc(OC(F)(F)F)cc1	nt	-3%	12%[46.1 µM]	-8%[46.1 µM]	1%	0%	nt	-4%
CC1CC(C)CN(CCCNC(=O)CN2C(=O)CSc3ccc(S(=O)(=O)N4CCOCC4)cc32)C1 (stereo unspecified)	nt	-11%	nt	nt	6%	-15%	nt	-9%
CCOc1cc(/C=C(\C#N)C(=O)Nc2cccc(C(=O)O)c2)ccc1OCc1ccccc1Cl	nt	8%	10%[46.1 µM]	8%[46.1 µM]	0%	-25%	nt	?
COc1ccc(-c2noc3c2-c2nc(-c4ccc(Cl)cc4)sc2CC3)cc1	nt	-16%	nt	nt	8%	6%	nt	-24%
Cc1ccc(CCNc2ncnc3onc(-c4ccc(Cl)cc4)c23)cc1	0.1%	nt	?	-17%[46.1 µM]	nt	nt	5%	-27%
O=C(NCC1CCCO1)c1ccc(Oc2ccc([N+](=O)[O-])cc2Cl)cc1 (stereo unspecified)	nt	-35%	nt	nt	-1%	11%	nt	-15%
COc1cc2cc[n+](Cc3ccc([N+](=O)[O-])cc3)cc2cc1OC	nt	1%	nt	nt	2%	0%	nt	-21%
O=C(O)Cc1ccc(NC(=O)Nc2ccc(Br)cc2)cc1	nt	2%	17%	6%[46.1 µM]	0%	8%	nt	16%
COc1ccccc1C(=O)NCC(=O)N/N=C/c1ccc2c(c1)OCO2	nt	4%	?	?	-4%	-21%	nt	25%
COc1cc(C#N)ccc1OC(=O)c1cccc(S(=O)(=O)N2CCN(C)CC2)c1	nt	nt	12%	-3%	-2%	-7%	nt	-21%
CC(=O)c1c(C)[nH]c(C(=O)OCC(=O)N2CCCC2=O)c1C	nt	nt	10%	9%	-5%	-2%	nt	28%
CCOC(=O)c1c(S(=O)(=O)Nc2cccc(Cl)c2)c(C)n(C)c1C	nt	?	-22%[46.1 µM]	-3%[46.1 µM]	3%	4%	nt	46%[activator]
CCC(Sc1nc(=O)cc(N)n1-c1cccc(C)c1)C(=O)Nc1cc(C)on1 (stereo unspecified)	-8.9%	-1%	7%	9%	1%	9%	-26%	nt
Cc1ccc(CNC(=S)Nc2ccc(NS(=O)(=O)c3ccc(C)cc3)cc2)cc1	nt	16%	?	?	-5%	-24%	nt	-20%
O=C(CSc1ncn[nH]1)Nc1ccc2c(c1)CCC2	-1.3%	7%	-1%	-16%	-12%	nt	4%	-6%
O=C(c1cc2c(s1)CCCCCC2)N1CCC2(CC1)OCCO2	-7.3%	-50%	-4%	10%	-15%	1%	5%	0%
N#CC1=C(C=Nc2ccccc2O)CCC1	7.1%	6%	-21%	?	-3%	7%	-1%	1%
Cc1ccc(CN2CCCn3nc(C(=O)NCc4cc(C)ccc4C)cc3C2=O)cc1	-3.7%	nt	?	nt	nt	nt	-3%	-22%
CC1CC(C)CN(C(=O)c2ccc3c(=O)n(Cc4ccc5c(c4)OCO5)c(=S)[nH]c3c2)C1 (stereo unspecified)	-2.8%	-3%	4%	17%	4%	-2%	?	-26%
Cn1c(=O)[nH]c(=O)c2c1nc(SCCO)n2CC(O)COc1ccccc1 (stereo unspecified)	nt	3%	-19%	-3%[46.1 µM]	1%	4%	nt	9%
N/C(CCS(=O)(=O)c1ccc(Cl)cc1)=N\OC(=O)c1ccccc1C(F)(F)F	nt	-2%	22µM*	?	-2%	7%	nt	-23%
CCCCNC(=O)CO/N=C(\C)c1cc2ccccc2o1	3.4%	-10%	-5%	-5%	-1%	-6%	7%	10%
CCCC(=O)NC(c1ccc2c(c1)OCO2)c1cc(Cl)c2cccnc2c1O (stereo unspecified)	-1.0%	20%	?	?	2.8µM*	0%	-2%	-25%
COc1ccccc1C(CNC(=O)c1oc2ccccc2c1C)N1CCCC1 (stereo unspecified)	nt	nt	-26%	-63%	2%	-11%	nt	-7%
Cc1ccc(Sc2oc(/C=N/n3cnnc3)cc2Br)cc1	1.7%	-84%	?	0%	-8%	9%	4%	nt
c1ccc(-c2ccc(CN3C[C@@H]4C(c5ccccc5)C5(c6cccnc6)CC4(C5)[C@H]3c3ccccc3)cc2)cc1 (stereo partly specified)	-0.2%	0%	nt	nt	-1%	0%	-1%	-9%
CC(=O)N1CCN(Cc2nc3cc(NC(=O)c4cccc(Br)c4)ccc3n2C)CC1	nt	-3%	-24%	?	0%	-7%	nt	?
O=S(=O)(c1ccc(F)cc1)c1nc(-c2ccco2)oc1Nc1ccccc1	-9.6%	13%	?	11%	-1%	-14%	-15%	54%[activator]
COc1ccc(NC2CCCN(C(=O)c3ccc(C(C)=O)s3)C2)cc1 (stereo unspecified)	nt	-3%	19%[46.1 µM]	5%[46.1 µM]	3%	-22%	nt	12%
Cc1ccc(CCNCc2c(C(=O)O)c(C)n(-c3ccccc3)c2C)cc1	nt	6%	nt	nt	-6%	-4%	nt	-15%
CC(C)(O)C(O)COc1c2ccoc2cc2oc(=O)ccc12 (stereo unspecified)	nt	4%	nt	nt	-2%	14%	nt	-11%
O=C(Nc1ccc(O)c2c(=O)cc(-c3ccccc3Cl)oc12)c1ccc(F)cc1	nt	8%	nt	nt	0%	14%	nt	-15%
Cc1cccc(OCCn2c(=O)sc3ccccc32)c1	-8.2%	-18%	?	21%	-3%	-4%	-2%	7%
CCn1c(O)c(C=NCc2ccccc2)sc1=S	nt	-2%	nt	nt	-1%	-8%	nt	-2%
CC(C)c1ccccc1NC(=O)c1cccnc1	0.7%	-4%	13%	0%	0%	-3%	-8%	-1%
Cc1ccc(N(CC(=O)NCc2ccccc2)S(=O)(=O)c2c(C)noc2C)cc1	nt	6%	6%[46.1 µM]	-5%[46.1 µM]	-2%	-15%	nt	11%
CC(=O)Nc1ccc(NC(=O)c2ccc(N(Cc3ccccc3C)S(C)(=O)=O)cc2)cc1	nt	nt	-16%[46.1 µM]	?	nt	5%	nt	7%
COC(=O)CNC(=O)/C=C/c1ccc(OC)cc1	-1.8%	2%	8%	1%	3%	5%	0%	49%[activator]
Cc1ccc(C(C(=O)NC2CCCC2)N(Cc2ccc3c(c2)OCO3)C(=O)c2snc(C(N)=O)c2N)cc1 (stereo unspecified)	nt	6%	-8%[46.1 µM]	?	0%	-3%	nt	-1%
